TAR Tat displ = HIV-1 TAR-Tat binding disruption; AID 1259389; 0.6% of 100,000 active; HIV-1 TAR RNA, Tat peptide displacement FRET; stronger effect = higher value; z-score (no concentration beside the values);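 note: score is relative to mean and SD of negative controls; some compounds called inactive have numbers as strong as hits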
CDC25B-CDK2 inh = human CDC25B-CDK2/CyclinA binding inhibition; P30305+P24941; HTRF CDC25B-CDK2/CyclinA binding, anti-His/anti-Flag; stronger effect = higher value; z-score (no concentration beside the values); 0.72% of 94,000 active;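 note: score is relative to mean and SD of negative controls; strong numbers were not always called active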
Numbers without * were called inactive.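 Rule for the calls: active = z-score from 3 up in half or more of its runs; inactive = the rest.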

Clc1cccc(CNc2ccc3nnc(-c4ccccc4)n3n2)c1 was read as TAR Tat displ 1.2 and CDC25B-CDK2 inh -0.58.
For CCOC(=O)c1ccc2nc(C(F)(F)F)nc(N3CCCCC3)c2c1 the results were TAR Tat displ 0.79 and CDC25B-CDK2 inh 1.1.
Screening O=C(Nc1ccccc1C(=O)Nc1nccs1)c1ccccc1 returned CDC25B-CDK2 inh -1.2.
For O=C1NC(=O)C(Cc2ccccc2)N1 (centres undefined) the results were CDC25B-CDK2 inh -0.23.
Screening COc1cc(Nc2nc(-c3cc(OC)ccc3OC)no2)cc(OC)c1 returned TAR Tat displ -0.67.
Cc1ccc(CNC(=O)C2CCCN(c3nnc(-n4cccc4)s3)C2)o1 (centres undefined) was read as TAR Tat displ 2.7.
`CCSc1ncc(Cl)c(C(=O)Nc2sc3c(c2C(=O)OC)CCCC3)n1` gave TAR Tat displ 0.57 and CDC25B-CDK2 inh -1.1.
For O=C1c2ccccc2C(=O)N1/N=C/c1ccco1 the results were CDC25B-CDK2 inh -0.2.
Screening CCN1C(=O)Cc2cc(NS(=O)(=O)c3ccccc3F)ccc21 returned TAR Tat displ 0.68.
COc1ccc(S(=O)(=O)c2cn(C)c3cc(N4CCCCC4)c(F)cc3c2=O)cc1 was read as TAR Tat displ 0.66.
Screening CC1=NN(C(=O)c2c(Br)c(C)nn2C)C(O)(C(F)(F)F)C1 (centres undefined) returned CDC25B-CDK2 inh -0.37.
Cc1cccc(-c2nc3n(n2)C(c2ccc(O)cc2)C2=C(CCCC2=O)N3)c1 (centres undefined) was read as TAR Tat displ 0.43 and CDC25B-CDK2 inh -0.81.
`CN1C(=O)C(C)(C)c2cc(S(=O)(=O)N(C)Cc3ccccc3)ccc21` gave TAR Tat displ 0.49.
Screening CC1=C(C(=O)NC2CCCCC2C)C2(CCCCC2)OC1=O (centres undefined) returned TAR Tat displ 0.45 and CDC25B-CDK2 inh -0.67.
For CCN(CC)CCCNc1sc(S(C)(=O)=O)nc1S(=O)(=O)c1ccc(C)cc1 the results were TAR Tat displ 1.4 and CDC25B-CDK2 inh -0.21.

Compounds from the list above with a halogen (six):
Clc1cccc(CNc2ccc3nnc(-c4ccccc4)n3n2)c1 was read as TAR Tat displ 1.2 and CDC25B-CDK2 inh -0.58.
For CCOC(=O)c1ccc2nc(C(F)(F)F)nc(N3CCCCC3)c2c1 the results were TAR Tat displ 0.79 and CDC25B-CDK2 inh 1.1.
`CCSc1ncc(Cl)c(C(=O)Nc2sc3c(c2C(=O)OC)CCCC3)n1` gave TAR Tat displ 0.57 and CDC25B-CDK2 inh -1.1.
Screening CCN1C(=O)Cc2cc(NS(=O)(=O)c3ccccc3F)ccc21 returned TAR Tat displ 0.68.
COc1ccc(S(=O)(=O)c2cn(C)c3cc(N4CCCCC4)c(F)cc3c2=O)cc1 was read as TAR Tat displ 0.66.
Screening CC1=NN(C(=O)c2c(Br)c(C)nn2C)C(O)(C(F)(F)F)C1 (centres undefined) returned CDC25B-CDK2 inh -0.37.

The listing continues.
`CCN1CCN(c2ncnc3scc(-c4ccc(F)cc4)c23)CC1` gave TAR Tat displ -0.33.
Screening O=C1N=c2ccc(Cl)cc2=C1c1sc(NS(=O)(=O)c2ccccc2)nc1O returned CDC25B-CDK2 inh -6.6.
For O=C(Cc1c(Sc2cccc(F)c2)[nH]c2ccccc12)Nc1nccs1 the results were TAR Tat displ 0.83.
For O=C(O)CCC(=O)NCC(=O)c1ccc(F)cc1 the results were CDC25B-CDK2 inh -2.2.
For CCOc1ccc(CCNS(=O)(=O)c2c(C)nc3sccn3c2=O)cc1OCC the results were TAR Tat displ 1.5.
For Cc1ccc(S(=O)(=O)c2nc(S(=O)(=O)c3ccccc3)sc2NCCCN(C)C)cc1 the results were TAR Tat displ -0.19 and CDC25B-CDK2 inh -0.31.
CCc1nnc(NC(=O)CSCc2cc(=O)n3cc(C)sc3n2)s1 was read as TAR Tat displ 2.
For CCOC(=O)c1c(NC(=O)C2COc3ccccc3C2)sc(C)c1C (centres undefined) the results were TAR Tat displ 0.29 and CDC25B-CDK2 inh -0.58.
Screening O=C(O)c1cc(NC(=O)c2cccc(N3C(=O)c4ccccc4C3=O)c2)cc(C(=O)O)c1 returned CDC25B-CDK2 inh -2.4.
Screening CC1CC(C)CN(CCCNC(=O)C2CCCN(S(=O)(=O)N3CC(C)CC(C)C3)C2)C1 (centres undefined) returned TAR Tat displ 0.82.
`O=c1c(Nc2ccccc2F)c(-c2ccc(Cl)cc2)c1=O` gave TAR Tat displ -0.96.
For CCOC(=O)c1c(NC(=O)CCC(=O)O)sc2c1CCCC2 the results were TAR Tat displ 1 and CDC25B-CDK2 inh -0.3.
Screening Clc1cccc(N2CCN(Cc3nnc(-c4ccccc4)o3)CC2)c1 returned TAR Tat displ 2.8 and CDC25B-CDK2 inh -0.69.
`CN(C)CCCNc1nc(N)c([N+](=O)[O-])c(NC2CCCCC2)n1` gave TAR Tat displ 1.1.
CN(C)c1nc(OCCNC(=O)Nc2ccc(Cl)cc2)nc(N2CCOCC2)n1 was read as TAR Tat displ -0.57 and CDC25B-CDK2 inh -0.87.
Screening CCc1onc(C)c1C1CCCN1C(=O)NC(C)CC (centres undefined) returned TAR Tat displ 1.4.
Screening O=C(/C=C/c1cccnc1)NCCCCC1CCN(C(=O)c2ccccc2)CC1 returned TAR Tat displ 2.
c1ccc2[nH]c(CSCSCc3nc4ccccc4[nH]3)nc2c1 was read as CDC25B-CDK2 inh -2.4.
Screening CCCNC(=O)N1CCC2(CC1)Nc1cc(F)ccc1-n1cccc12 returned TAR Tat displ 0.63.
Cc1ccc(-c2nn3c(=O)cc(N4CCN(C(=O)c5cccs5)CC4)nc3s2)cc1 was read as TAR Tat displ 0.28.
`Nc1ccccc1SCC(O)COc1cccc(C(F)(F)F)n1` (centres undefined) gave CDC25B-CDK2 inh -0.38.
Screening COc1ccc(NC(=O)Nc2nnc(Cc3cccc(Br)c3)s2)cc1 returned CDC25B-CDK2 inh -2.7.
CC(C)Nc1nc(N(C)C)nc2c1cnn2C was read as TAR Tat displ 0.4.
Cn1c(-c2ccc(F)cc2)cnc1NCc1cc(Br)ccc1F was read as TAR Tat displ -0.42 and CDC25B-CDK2 inh -1.1.
For CSc1nc(NC(C)c2ccccc2)c(C#N)c(-c2ccccc2)n1 (centres undefined) the results were TAR Tat displ 0.65 and CDC25B-CDK2 inh -1.9.
Cc1ccc(OCCSc2nc3c(c(=O)[nH]2)CCC3)cc1 was read as TAR Tat displ 2.3 and CDC25B-CDK2 inh -0.08.
CC(=O)N1CCSc2ccc(S(=O)(=O)N3CCC(C)CC3)cc21 was read as TAR Tat displ 2.3.
Screening O=C(Nc1nnc(SCc2nc3ccccc3[nH]c2=O)s1)c1ccccc1F returned TAR Tat displ -1.5.
Cc1[nH]c(C)c(S(=O)(=O)NC2CCCC2)c1C(=O)N1CCCCC1 was read as TAR Tat displ -0.7.
`Cc1ccc2[nH]c(=O)c(-c3noc(C(C)C)n3)cc2c1` gave TAR Tat displ 2 and CDC25B-CDK2 inh -0.68.

Molecules above with a thiophene ring, fused or not, in the order listed:
`CCSc1ncc(Cl)c(C(=O)Nc2sc3c(c2C(=O)OC)CCCC3)n1` gave TAR Tat displ 0.57 and CDC25B-CDK2 inh -1.1.
`CCN1CCN(c2ncnc3scc(-c4ccc(F)cc4)c23)CC1` gave TAR Tat displ -0.33.
For CCOC(=O)c1c(NC(=O)C2COc3ccccc3C2)sc(C)c1C (centres undefined) the results were TAR Tat displ 0.29 and CDC25B-CDK2 inh -0.58.
For CCOC(=O)c1c(NC(=O)CCC(=O)O)sc2c1CCCC2 the results were TAR Tat displ 1 and CDC25B-CDK2 inh -0.3.
Cc1ccc(-c2nn3c(=O)cc(N4CCN(C(=O)c5cccs5)CC4)nc3s2)cc1 was read as TAR Tat displ 0.28.

The list goes on:
Cc1ccc2oc(=O)c3cc(C(=O)N(C)C4CCCCC4)sc3c2c1 was read as TAR Tat displ 0.48 and CDC25B-CDK2 inh -0.89.
For C[C@@H]1CC[C@@]2(OC1)O[C@H]1CC3C4CC[C@H]5C[C@@H](O)CC[C@]5(C)C4CC[C@]3(C)[C@H]1[C@@H]2C (some centres undefined) the results were TAR Tat displ 1.8.
For O=C(CN1C(=O)c2ccccc2S1(=O)=O)Nc1nc(-c2cccs2)cs1 the results were TAR Tat displ 1.8 and CDC25B-CDK2 inh -1.5.
For COC(=O)c1cc2occc2n1CC(=O)N1CCCc2ccccc21 the results were TAR Tat displ -0.92 and CDC25B-CDK2 inh -0.57.
`O=C(NCc1ccc2c(c1)OCO2)c1ccc(N2C(=O)CCS2(=O)=O)cc1Cl` gave TAR Tat displ 2.3 and CDC25B-CDK2 inh -0.32.
CCOC(=O)c1c(C)sc2c3c([nH]c12)CCCC3 was read as CDC25B-CDK2 inh -1.6.
For Clc1cccc(-c2nnc3sc(C4COc5ccccc5O4)nn23)c1 (centres undefined) the results were TAR Tat displ -0.04 and CDC25B-CDK2 inh 0.62.
`N[C@H]1CONC1=O` gave CDC25B-CDK2 inh -1.2.
Screening Cn1nnnc1SCCCNCc1ccccc1OCc1ccc(Cl)cc1 returned TAR Tat displ 1 and CDC25B-CDK2 inh -0.7.
For CCOc1ccc(Cl)cc1CNCCCSc1nnnn1C the results were TAR Tat displ 1.9 and CDC25B-CDK2 inh -0.21.
`CCOc1ccc(C(C)C)cc1S(=O)(=O)n1ccnc1C` gave TAR Tat displ 2.9 and CDC25B-CDK2 inh -0.78.
Screening Cc1noc(C)c1C(=O)NNc1cc(Cl)ccc1Cl returned CDC25B-CDK2 inh -1.1.
CCc1ccc2oc(C(=O)Nc3nonc3CC)c(C)c2c1 was read as TAR Tat displ 0.58 and CDC25B-CDK2 inh -0.36.
Screening OC1(c2ccccc2)CCOCC1 returned CDC25B-CDK2 inh -1.6.
`COCCNC(=O)C1CC(c2cc(OC)ccc2OC)=NO1` (centres undefined) gave TAR Tat displ -0.92 and CDC25B-CDK2 inh -1.7.
For Cc1ccccc1-c1nnc(CN2CCCC2)o1 the results were TAR Tat displ 0.91 and CDC25B-CDK2 inh -2.2.
O=c1c2cc(Cl)ccc2[nH]c(=S)n1Cc1cccs1 was read as CDC25B-CDK2 inh -1.
Cc1nc(CNC(=O)[C@H]2CSCN2C(=O)Nc2cccc(Br)c2)cs1 was read as TAR Tat displ 1.4.
O=C(NCCc1ccc(Cl)cc1)C12CC3CC(CC(C3)C1)C2 was read as CDC25B-CDK2 inh -2.1.
Clc1ccccc1-c1nc2c3cnn(Cc4ccccc4)c3ncn2n1 was read as TAR Tat displ 0.84 and CDC25B-CDK2 inh -1.3.
O=C1CCSc2ccc(S(=O)(=O)Nc3ccc(F)c(Cl)c3)cc2N1 was read as TAR Tat displ 0.88.
Cc1c(C(=O)O)oc2c1C(=O)CCC2 was read as TAR Tat displ 0.92 and CDC25B-CDK2 inh 0.18.
`O=C1SCCC1NS(=O)(=O)c1ccc(F)cc1Cl` (centres undefined) gave CDC25B-CDK2 inh -2.1.
`CCSc1nnc2c(n1)OC=Nc1ccc(Br)cc1-2` gave TAR Tat displ -0.71 and CDC25B-CDK2 inh 1.1.
c1cncc(-c2nc3n(n2)C2(CCCCC2)[C@@H]2CCCC[C@@H]2N3)c1 was read as TAR Tat displ 1.2 and CDC25B-CDK2 inh 0.48.
`O=c1c(-c2ccccc2)c(N(CCO)Cc2ccccc2)c1=O` gave TAR Tat displ 1.2.
COc1cc(NC(=O)CN2c3cccc4cccc(c34)S2(=O)=O)c(OC)cc1Cl was read as TAR Tat displ -2 and CDC25B-CDK2 inh -0.21.
`O=C(CSc1cn(CC(=O)N2CCOCC2)c2ccccc12)NC1CCCC1` gave TAR Tat displ 0.04.
Screening COc1ccc(N(C)c2nc(-c3ccc(OC)c(OC)c3)no2)c(OC)c1 returned TAR Tat displ -0.29.
Screening CCCC[C@@H](C=O)NC(=O)OC(C)(C)C returned TAR Tat displ 1.4.
Screening O=S(=O)(NCCc1ccccn1)c1ccc(S(=O)(=O)N2CCOCC2)cc1 returned CDC25B-CDK2 inh -2.2.
Screening CCCn1c(CCC(=O)NCCc2sccc2C)nc2cccnc21 returned TAR Tat displ 1.1 and CDC25B-CDK2 inh -1.7.
COc1ccccc1CNc1nnc(Cc2cccnc2)c2ccccc12 was read as TAR Tat displ 0.19 and CDC25B-CDK2 inh -0.81.
COc1cccc(C2CC(c3cccs3)=NN2C(=O)CSc2cn(C)c3ccccc23)c1OC (centres undefined) was read as TAR Tat displ 0.26.
For CSc1nsc(SCC(=O)Nc2cc(C)on2)n1 the results were TAR Tat displ -0.31 and CDC25B-CDK2 inh -1.8.
Screening Cc1noc(C)c1S(=O)(=O)NN returned CDC25B-CDK2 inh -0.64.
NC(=O)C1=CNCCC1C(F)(F)F (centres undefined) was read as CDC25B-CDK2 inh -0.24.
For O=C(CSc1oc(-c2ccco2)nc1S(=O)(=O)c1ccc(Cl)cc1)NCC1CCCO1 (centres undefined) the results were TAR Tat displ -1.6 and CDC25B-CDK2 inh -2.5.
For CNC(=O)CCC(=O)N1Cc2ccccc2Oc2ncccc21 the results were TAR Tat displ 2.7.
O=C(Cn1cnc(S(=O)(=O)N2CCOCC2)c1)N1CCC(c2ccccc2)C1 (centres undefined) was read as TAR Tat displ -0.47.
Screening COc1ccc(OCC(O)CNC(=O)C2CCN(c3nccc(C(F)(F)F)n3)CC2)cc1 (centres undefined) returned CDC25B-CDK2 inh -0.12.
For CCC(C)NC(=O)c1oc2ccc3c(c2c1C)C(=O)CC(C)(C)O3 (centres undefined) the results were CDC25B-CDK2 inh 0.25.
CCOC(=O)c1c(C)n(C)c2ccc(OCC(O)CN3CCN(C)CC3)cc12 (centres undefined) was read as TAR Tat displ 1.9 and CDC25B-CDK2 inh 1.6.
For COCCOC(=O)C1=C(N)OC2=C(C(=O)CC(C)(C)C2)C1c1cccnc1 (centres undefined) the results were CDC25B-CDK2 inh -0.41.
Screening Cc1ccc(C2=NN(C(=O)CCC(=O)O)C(c3ccc(C)cc3)C2)cc1 (centres undefined) returned TAR Tat displ 1.3 and CDC25B-CDK2 inh 0.83.
`CCOC(=O)c1cnc2c(c(C)nn2C)c1Sc1ccccn1` gave CDC25B-CDK2 inh -2.
For O=C(C1CCN(c2ccc(-c3cccs3)nn2)CC1)N1CCOCC1 the results were TAR Tat displ 0.13.
